Screening results as filed in PubChem.
Beta cell apopt = beta cell apoptosis inhibition. INS-1E cytokine-induced death, ATP luminescence, 48 h; percent of positive-control rescue, neutral wells zero. protection from apoptosis, % (no concentration beside the values). actives 0.8% (n = 300,000). AID 435005;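 active = all replicates at 75% or more, or half of them and the mean; inconclusive = half reach 75% but not the mean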;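 note: 0% = cytokine-treated negative control wells and 100% = positive control rescue; higher means more ATP so stronger rescue from cytokine killing; wells of about 40 µL received 100 nL stock; the first replicate is given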
T cruzi repl = T. cruzi replication inhibition; actives 1.4% (n = 300,000); inhibition, % (no concentration beside the values); T. cruzi beta-gal in NIH3T3, luminescence, 90 h; AID 1885;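 active = mean inhibition across valid replicates above about 55%, limit read from the data; inconclusive = mean below that limit but half or more replicates reach it; inactive = mean below it, under half of replicates reach it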;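 note: signal also drops with host cell toxicity which is not excluded here; 0% = plate median of DMSO wells and 100% = zero luminescence signal; higher percent means less beta-gal luminescence so fewer parasites; stock transfer was 50 nL into about 50 µL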
A1 inh = inhibitors of the anti-apoptotic protein A1, read as caspase activation; MEF A1-2A-BIM cells, Caspase-Glo 3/7 luminescence, 3 h; percent of clofoctol response, vehicle zero; caspase activation, % (concentration not given with the values); actives 0.066% (n = 330,000); AID 2462;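 active = over half of replicate activation scores above 10%, or exactly half above 10 with the replicate mean above 10; inconclusive = replicate mean below 10 yet half the replicates above 10; inactive = over half of replicates below 10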;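 note: wells of about 30 µL received 50 nL stock; many hits fall short of the cut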
UCH37 DUB inh = human UCH37 deubiquitinating enzyme inhibition; Q9Y5K5; purified proteasome/UCH37, Ub-AMC cleavage fluorescence; inhibition, % (test concentration not listed); actives 0.33% (n = 330,000);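 active = mean of two replicates above 20%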;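 note: 0% = compound-free wells with enzyme and 100% = wells lacking proteasome; stock transfer was 100 nL into about 20 µL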
Target sequence (Q9Y5K5 whole entry, looked up): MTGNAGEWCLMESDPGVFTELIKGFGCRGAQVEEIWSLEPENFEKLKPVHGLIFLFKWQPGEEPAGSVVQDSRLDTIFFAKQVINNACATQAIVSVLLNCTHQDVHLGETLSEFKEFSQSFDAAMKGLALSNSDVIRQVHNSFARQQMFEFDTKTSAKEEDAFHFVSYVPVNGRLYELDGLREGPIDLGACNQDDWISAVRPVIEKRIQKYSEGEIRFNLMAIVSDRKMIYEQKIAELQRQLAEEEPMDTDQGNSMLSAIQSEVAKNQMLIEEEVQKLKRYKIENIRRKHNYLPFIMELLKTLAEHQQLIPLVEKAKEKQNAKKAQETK
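assay system = human UCH37 enzyme supplied as purified proteasome complex | amount = proteasome at 0.15 nM in the dispensed enzyme solution | schedule = 30 min compound-proteasome preincubation then 25 min substrate reaction, room temperature | measured by = fluorescence, ex 355 nm, em 460 nm | benchmarks = no-proteasome wells (full inhibition) and compound-free wells (no inhibition)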
B2AR ag = agonists of human beta-2 adrenergic receptor inducing internalization | P07550 | Am2.2-beta2AR cells, FAP receptor internalization, flow cytometry; reference of the scale not given here | response, % (test concentration not listed) | actives 0.43% (n = 340,000);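 active = response above a set limit, near 3 SD of response in nonfluorescent compounds, cut at about 42% in these data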;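 note: stock transfer was 100 nL into about 11 µL; a reference agonist was the positive control; negative values mostly stem from fluorescent compounds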
Target sequence (P07550 whole entry, looked up): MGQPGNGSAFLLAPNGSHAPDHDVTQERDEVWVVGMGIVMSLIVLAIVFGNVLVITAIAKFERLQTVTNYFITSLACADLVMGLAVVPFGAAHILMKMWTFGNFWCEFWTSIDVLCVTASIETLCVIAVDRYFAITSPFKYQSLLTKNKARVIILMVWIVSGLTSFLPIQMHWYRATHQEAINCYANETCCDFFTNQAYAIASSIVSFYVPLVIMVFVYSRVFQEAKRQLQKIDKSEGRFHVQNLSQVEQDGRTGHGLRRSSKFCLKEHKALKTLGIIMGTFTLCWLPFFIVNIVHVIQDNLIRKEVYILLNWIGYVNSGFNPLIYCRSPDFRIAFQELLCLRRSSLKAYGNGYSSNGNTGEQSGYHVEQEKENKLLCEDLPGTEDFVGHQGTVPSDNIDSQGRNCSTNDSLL
LANA-H2A inh = blocks KSHV LANA binding to histone H2A/H2B; inhibition, % (concentration not given with the values); actives 0.6% (n = 320,000); Q9QR71; cell-free LANA-H2A/H2B peptide, fluorescence polarization; in the data active = inhibition mostly above about 10%, no sharp cut-off; inactive = mostly below about 6.7%;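 note: stock transfer was 7.5 nL into about 10 µL; 0% = median of vehicle wells and 100% = median of positive control wells; one replicate is shown; the record names a cut of 25% in any replicate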
Calb FLC = affects C. albicans growth with fluconazole; C. albicans CaCi-2 (fluconazole-resistant clinical isolate) + fluconazole, Alamar Blue growth, 48 h; growth inhibition, % (concentration not given with the values); actives 0.57% (n = 300,000);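 active = most replicates above 75%; inconclusive = exactly half above 75%; inactive = most below 75%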;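 note: all wells also contain fluconazole at 8 µg/ml as a sub-toxic cotreatment; 0% = median of DMSO wells and 100% = median of geldanamycin control wells; wells of about 8 µL received 7.5 nL stock; the first replicate is given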
RanGTP-Imp inh = disruptors of Ran-importin-beta complex formation – biochemical, FRET, CFP-Ran, YFP-importin-beta, homogeneous, primary screen. cell-free CFP-Ran/YFP-importin-beta FRET ratio. inhibition, % (concentration not given with the values). actives 1.1% (n = 300,000);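 active = most replicates above 15%; inconclusive = exactly half above 15%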;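 note: 0% = DMSO wells and 100% = Ran loaded with GDP instead of GTP; wells of about 40 µL received 100 nL stock; the first replicate is given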
* = called active by the depositor; ? = inconclusive; nt = no result given.

SMILES | Beta cell apopt | T cruzi repl | A1 inh | UCH37 DUB inh | B2AR ag | LANA-H2A inh | Calb FLC | RanGTP-Imp inh
COc1ccc(C(=O)N/C(=C\c2ccccc2)C(=O)Nc2ccccc2C(=O)O)cc1 | 0 | -4 | 0.1 | 6.3 | 2 | -2.3 | 4 | -0.2
COCCCN(Cc1ccco1)C(=O)c1cc2c(s1)-c1ccc(Cl)cc1S(=O)(=O)C2 | 4 | 19 | -0.2 | 4.0 | -12 | -2.9 | -14 | 0.8
CC(=O)N1CCN(C(=O)c2cc(S(=O)(=O)N3CCCCC3)ccc2Cl)CC1 | nt | 5 | 1.5 | -0.9 | -2 | 1.2 | 6 | 1.3
O=C(Cc1c[nH]c2ccccc12)N[C@@H](Cc1c[nH]c2ccccc12)C(=O)O | -7 | -13 | 0.3 | 5.4 | -1 | 2.7 | 0 | 2.3
CCOc1ccc(Nc2nc(Nc3ccc(O)cc3)nc(C)c2[N+](=O)[O-])cc1 | -2 | -7 | 0.3 | 6.9 | 1 | -1.5 | -5 | 1.9
Cc1cc(Cl)ccc1OCC(=O)Nc1cccnc1 | -9 | -11 | -1.6 | 1.4 | 8 | -4.6 | -5 | -3.7
CCCCNC(=O)CSc1nc(N)c(C(=O)Nc2ccc(OC)cc2)s1 | -11 | 8 | -0.3 | 10 | -3 | -4.6 | -7 | -0.3
CCC(CC)c1nnc(NC(=O)CCc2ccccc2)s1 | 3 | 12 | 1.7 | 3.0 | -10 | -1.0 | -12 | ?
COc1ccccc1OCc1nc(C#N)c(NCCCn2ccnc2)o1 | -1 | -8 | -0.6 | -0.1 | -6 | 1.9 | 4 | -0.8
CCCCCCNc1c(C(=O)OCC)c(=O)[nH]c2ccccc12 | 22 | 30 | -0.1 | 0.7 | -9 | 3.0 | 13 | 0.6
O=C(NNC(=O)c1cccs1)c1ccc(F)cc1 | -2 | -1 | 0.6 | 2.3 | -5 | -2.4 | 3 | 5.6
CC(NC(=O)COC(=O)/C(=C/c1cccs1)c1cccs1)c1ccccc1 (stereo not given) | 4 | -29 | 0.8 | 5.7 | 12 | -0.5 | -9 | 2.9
COc1ccc(NC(=O)C(=O)c2cn(CC(=O)N3CCCC3)c3ccccc23)c(OC)c1 | 4 | -5 | 0.3 | -17 | 2 | -2.3 | -1 | 1.7
CCN(CC)CCn1c2c(c(SCC(=O)Nc3nc4ccccc4s3)nc1=O)CCC2 | -10 | -3 | -0.3 | 9.7 | 9 | -0.9 | -4 | ?
CC(C)Oc1ccc(CNCCC2(C(C)C)CCOC(C)(C)C2)cc1 (stereo not given) | 1 | 68* | 0.4 | 4.5 | 3 | 4.5 | -18 | ?
CNC(=O)c1c(NC(=O)c2ccc(S(=O)(=O)N3CCCCC3C)cc2)sc2c1CCN(C)C2 (stereo not given) | -4 | 42 | 0.6 | -4.4 | -9 | 2.4 | 8 | 50*
CC1CCCCN1C(=O)CSc1nc(N)cc(=O)[nH]1 (stereo not given) | 1 | -5 | 0.7 | 2.9 | 1 | 0.3 | 13 | 3.2
COc1ccc(C(=O)n2nc(-c3ccco3)nc2N)cc1 | -8 | -13 | -1.1 | 2.4 | -4 | 8.7 | 1 | 2.0
CCOC(=O)c1nnn(-c2nonc2OC)c1-c1ccccc1 | -7 | -1 | -0.5 | 2.4 | 0 | -0.5 | 3 | -1.4
COc1cnn(Cc2ccccc2)c(=O)c1SCc1ccccc1 | -3 | -26 | 0.5 | 0.6 | -12 | 4.7 | 7 | -9.8
Cc1onc(-c2c(F)cccc2Cl)c1C(=O)NC(=S)NC1CCSC1=O (stereo not given) | 6 | -7 | 0.1 | 5.6 | 5 | -1.2 | -3 | -2.1
CCN1CCCC1CNC(=O)c1ccc(N2CCOCC2)c(NS(=O)(=O)c2ccc(OC)cc2)c1 (stereo not given) | -5 | -4 | 0.1 | -0.4 | -2 | -1.5 | -7 | 0.6
O=C(NC(=S)NC(CO)c1ccccc1)c1ccc(F)cc1 (stereo not given) | -6 | -10 | -0.3 | 4.6 | -12 | 0.3 | 0 | -4.8
CC(=O)N1CCN(C(=O)c2cc(S(=O)(=O)NCc3ccccc3)ccc2C)CC1 | -2 | 11 | 0.1 | 0.9 | -2 | -6.0 | -13 | 1.5
CC1(C)C2CCC1(CS(=O)(=O)NCc1ccc(Cl)cc1Cl)C(=O)C2 (stereo not given) | 1 | 7 | 0.1 | 2.9 | -7 | 0.4 | -9 | -3.1
Remaining list, next part.
SMILES | Beta cell apopt | T cruzi repl | A1 inh | UCH37 DUB inh | B2AR ag | LANA-H2A inh | Calb FLC | RanGTP-Imp inh
Cc1cc(C=O)c(C)n1-c1ccc(N2CCCC2)c([N+](=O)[O-])c1 | -1 | 1 | -0.4 | 0.3 | 0 | -0.5 | 19 | -0.7
O=C(NNS(=O)(=O)c1ccc2ccccc2c1)c1cccs1 | 2 | -4 | 0.5 | 4.0 | -1 | -1.6 | 15 | -3.0
CS(=O)(=O)N(CC(=O)Nc1ccc(S(=O)(=O)N2CCOCC2)cc1)c1ccccc1Br | -1 | -3 | 0.5 | -0.1 | 5 | -3.2 | -9 | -1.9
O=S(=O)(Nc1cnc2ccccc2c1)N1CCCCCC1 | 7 | -12 | 0.0 | 4.7 | 8 | -1.5 | 8 | -2.5
COc1ccc(OCc2cc(C(=O)NC(C)c3cnn(C)c3)no2)c(Cl)c1 (stereo not given) | 0 | -1 | 1.6 | -1.3 | 3 | -6.7 | 3 | 12
COc1ccc(OCCN2C(=O)c3ccccc3C2=O)cc1 | nt | -4 | -0.8 | 0.0 | -4 | 0.2 | 16 | 5.6
CN(C)C(CNC(=O)c1cccc(NS(=O)(=O)c2ccc(Br)cc2)c1)c1ccco1 (stereo not given) | 0 | -7 | 0.1 | -3.0 | 3 | 0.5 | 1 | -7.0
CCCc1[nH][nH]c(=O)c1C(c1cccc(Cl)c1)C(C#N)C#N (stereo not given) | 2 | 28 | -0.1 | 1.7 | 10 | 4.9 | 28 | -3.7
Cn1/c(=N\NC(=O)C2CCCCC2)sc2ccccc21 | -5 | -7 | 0.2 | nt | -8 | -2.7 | -16 | -3.6
COc1ccc(-c2nn(-c3ccccc3)cc2/C=C2/SC(=S)N(Cc3ccco3)C2=O)c(C)c1 | -3 | 9 | 0.7 | 5.8 | 6 | -2.3 | 45 | -3.3
COC(=O)c1ccccc1S(=O)(=O)NNC(=O)C12CC3CC(CC(C3)C1)C2 | -2 | nt | 0.7 | 2.1 | 4 | -2.8 | nt | nt
O=C(O)c1cc(S(=O)(=O)Nc2ccc3oc(=O)sc3c2)ccc1O | 3 | -5 | 1.5 | 3.1 | nt | -1.1 | 11 | 5.9
COc1cc2cc(CCCOC(=O)c3ccc(Br)cc3)oc(=O)c2cc1OC | -6 | nt | 0.4 | 3.9 | 0 | -0.1 | nt | nt
O=[N+]([O-])c1cccc(-c2ccc(C(=S)N3CCOCC3)o2)c1 | 2 | 9 | -0.4 | 5.9 | -10 | 12 | 24 | 1.9
O=C1NCCCC1C(=O)N1CCCCC1 (stereo not given) | 0 | -6 | 0.2 | -1.4 | -3 | -0.1 | 2 | 2.4
Cc1ccc(Nc2nc(N)nc(CN3CCN(Cc4ccccc4)CC3)n2)cc1Cl | -6 | 19 | 1.3 | 3.0 | 2 | -7.7 | -5 | -6.2
CCOC(=O)N1CCN(S(=O)(=O)c2ccc(C(=O)N(CCN(C)C)c3nc4ccc(CC)cc4s3)cc2)CC1 | -7 | 22 | 0.2 | 2.4 | 7 | 0.8 | 1 | 0.4
CCOC(=O)N1CCC(N(C(=O)Nc2ccccc2)C(C)CC)CC1 (stereo not given) | -11 | -10 | -0.1 | 2.2 | -1 | -0.2 | 2 | ?
Brc1cccc(OCCOCCn2ccnc2)c1 | -6 | 45 | 0.0 | 1.8 | 4 | 1.9 | -2 | 1.1
CCOCCCNC(=O)C(c1ccc(C)cc1)N(Cc1cccs1)C(=O)c1ccccn1 (stereo not given) | -2 | 4 | -0.3 | 2.0 | 1 | 0.3 | -2 | -5.6
COc1cc(C(=O)Nc2ccc(NC(=O)c3cccc(Cl)c3)nc2)cc(OC)c1OC | nt | 10 | nt | -9.8 | 10 | nt | 32 | -1.8
COc1cc(NC(=O)COC(=O)CCOc2ccc(C)cc2)cc(OC)c1 | nt | -4 | 0.8 | -0.9 | -4 | -1.1 | 2 | -0.8
CC(NS(=O)(=O)c1ccc(Br)s1)c1ccccc1 (stereo not given) | -7 | -15 | 0.2 | 0.9 | -6 | 2.0 | -14 | 0.8
CCOC(=O)c1c(NC(=O)C[n+]2ccc(N(C)C)cc2)sc(C)c1C | 45 | 62* | 0.2 | 0.1 | -1 | -9.0 | 9 | -0.8
O=C(COC(=O)Cc1c[nH]c2ccccc12)Nc1c(Cl)cccc1C(F)(F)F | 5 | -10 | -0.1 | 2.0 | 2 | -6.2 | -6 | 1.5
CS(=O)(=O)N(Cc1ccccc1Cl)c1ccc(C(=O)NCc2cccnc2)cc1 | -6 | 21 | -0.7 | -1.2 | -1 | 3.5 | -3 | 0.8
COc1ccc(C(=O)C(OC(=O)c2ccc(C)c(NC(C)=O)c2)c2ccccc2)cc1 (stereo not given) | 1 | 9 | -0.1 | 4.2 | -3 | -2.2 | 3 | -3.7
COC(=O)/C(=C/c1ccco1)NC(=O)c1ccco1 | -8 | -1 | 0.4 | 7.5 | 21 | -0.9 | 29 | 3.9
O=C(NCC1CCCO1)c1ccc2c(c1)ncn2-c1cccc(F)c1 (stereo not given) | -2 | -11 | 1.0 | -2.0 | -24 | 6.9 | 8 | ?
O=C(CNC(=O)c1ccc(S(=O)(=O)N2CCCC2)cc1)N/N=C/c1ccccc1Cl | -5 | 14 | 2.0 | nt | 2 | -0.9 | -18 | -0.2

Reformatted as a markdown table: part of the list above.
| mol | Beta cell apopt | T cruzi repl | A1 inh | UCH37 DUB inh | B2AR ag | LANA-H2A inh | Calb FLC | RanGTP-Imp inh |
| --- | --- | --- | --- | --- | --- | --- | --- | --- |
| CCOC(=O)c1c(NC(=O)C[n+]2ccc(N(C)C)cc2)sc(C)c1C | 45 | 62* | 0.2 | 0.1 | -1 | -9.0 | 9 | -0.8 |
| O=C(COC(=O)Cc1c[nH]c2ccccc12)Nc1c(Cl)cccc1C(F)(F)F | 5 | -10 | -0.1 | 2.0 | 2 | -6.2 | -6 | 1.5 |
| CS(=O)(=O)N(Cc1ccccc1Cl)c1ccc(C(=O)NCc2cccnc2)cc1 | -6 | 21 | -0.7 | -1.2 | -1 | 3.5 | -3 | 0.8 |
| COc1ccc(C(=O)C(OC(=O)c2ccc(C)c(NC(C)=O)c2)c2ccccc2)cc1 (stereo not given) | 1 | 9 | -0.1 | 4.2 | -3 | -2.2 | 3 | -3.7 |
| COC(=O)/C(=C/c1ccco1)NC(=O)c1ccco1 | -8 | -1 | 0.4 | 7.5 | 21 | -0.9 | 29 | 3.9 |
| O=C(NCC1CCCO1)c1ccc2c(c1)ncn2-c1cccc(F)c1 (stereo not given) | -2 | -11 | 1.0 | -2.0 | -24 | 6.9 | 8 | ? |
